Sa RN4220 lethal = growth inhibition of S. aureus RN4220, primary screen, OD600 | 16 h | inhibition, % (concentration not given with the values) | 330,000 tested, 0.33% active | AID 1259311, 2017;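 active = z-score of -3 or lower and OD600 up to 0.18 on both plates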;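 also: plate controls were untreated cells for no effect and reference antibiotic for full effect; stock transfer was 100 nL into about 80 µL; one replicate is shown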
Sa ugtP lethal = growth inhibition of ugtP-null S. aureus, primary screen, RN4220 ugtP deletion, OD600; 16 h; some inactives read as strong as hits; growth inhibition, % (test concentration not listed); 330,000 tested, 0.54% active; AID 1259309, 2017;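 active = z-score under -3 and OD600 up to 0.15 on both plates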;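 also: plate controls were untreated wells for no effect and antibiotic for full effect; wells of about 80 µL received 100 nL stock; the first replicate is given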
Mtb hypoxia rep = PubChem AID 1159583; M. tuberculosis hypoxia-regulated fluorescent reporter, fluorescence; fluorescence inhibition, % (concentration not given with the values); 300,000 tested, 0.1% active;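 active = 35 to 45% if threefold the growth effect, above 45% if 1.5-fold the growth effect; inactive = the rest, general growth blockers included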;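 also: wells of about 50 µL received 100 nL stock; 0% = vehicle wells and 100% = reference inhibitor wells; whole bacteria with a GFP reporter of the hypoxia response; strong numbers were not always called active; many hits fall short of the cut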
BJeLR viability = MLPCN primary cell-based screen for lethality selective to Ras in HRASV12 cells. 300,000 tested, 0.17% active. BJeLR (HRASV12) viability, CellTiter-Glo ATP luminescence, 48 h; reference of the scale not given here. inhibition, % (no concentration beside the values);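 active = replicate mean above 50%; inconclusive = above 50% but judged a plate artefact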;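 also: 50 nL library stock added to about 25 µL; numbers are from one replicate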
PrP UTR inh = inhibition of PrP 5' UTR reporter expression; cell-based PrP 5' UTR mRNA reporter, plate reader; inhibition, % (concentration not given with the values); 340,000 tested, 0.35% active; AID 488862, 2010;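 active = every replicate at 50% or more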;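 also: 0 = median of the neutral control wells; tested in H4 reporter cells; numbers are from one replicate; inactives centre near -14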
Bead autofluor = flagged as autofluorescent in microsphere protease counterscreen | fluorescence intensity (test concentration not listed) | AID 624483 | compound autofluorescence counterscreen, microsphere flow cytometry; active compounds read high | 360,000 tested, 3.1% active;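 active = at least 3 SD above the mean of all compounds, about 16000 in these data; inconclusive = too few beads counted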;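 also: 100 nL of 1 mM stock went into each well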
Mtb hypoxia rep growth = also measured in Mtb hypoxia rep; calls as there; growth inhibition, %; measured here: M. tuberculosis growth (absorbance);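 0% = vehicle and 100% = reference antibiotic; read after six days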
* marks the source's active call; other numbers are inactive results; u = inconclusive; x = no result given.

1. Cc1oc2c(CN3CCOCC3)c(O)ccc2c(=O)c1-c1ccc(Br)cc1
2. CC(C)(C)c1csc(SCC(=O)Nc2ccc(Cl)cn2)n1
3. O=C(Cn1[nH]c(=O)c2ccccc2c1=O)OCC(=O)c1ccccc1Cl
4. CCCc1cn(S(=O)(=O)c2ccc(OC)cc2OC)nc1N
5. COc1cc2c(cc1OC)CC(=O)N(C)CC2
6. Cc1ccccc1NC(=O)Cc1nc(-c2c[nH]c(C(=O)N3CCCC3)c2)cs1
7. O=C(CN1C(=O)NC2NC(=O)NC21)N/N=C/c1ccc(F)cc1 (stereo not drawn)
8. COc1ccccc1CC(=O)Nc1ccc2nc(C)sc2c1
9. CCc1c(C(=O)NC(C)C2CCCO2)csc1C (stereo not drawn)
10. COc1ccc(CNC(=O)CN(Cc2ccccc2)C(=O)c2csnn2)cc1

entry no.	1	2	3	4	5	6	7	8	9	10
Sa RN4220 lethal	-20	16	4.6	1.8	2.6	-0.9	x	5.1	6.3	-3.3
Sa ugtP lethal	-9	-4	9	8	9	-4	x	3	7	1
Mtb hypoxia rep	x	4	1	4	12	1	x	7	-1	6
Mtb hypoxia rep growth	x	9	-12	-3	6	10	x	4	-4	-3
BJeLR viability	-2	-10	-15	3	-1	x	5	-3	18	-8
PrP UTR inh	-7	-7	-18	-18	-15	-4	-10	-36	1	-16
Bead autofluor	3191	18967*	u	17146*	2518	3840	3983	2543	5838	3957

11. COCCNC(=O)CN(Cc1ccco1)C(=O)CCC(=O)Nc1nccs1
12. COc1ccc(-c2nnn(CC(=O)N(Cc3ccco3)C(C(=O)NCC3CCCO3)c3ccco3)n2)cc1 (stereo not drawn)
13. CN(C(=S)NC(=O)c1ccccc1Br)C1CCCCC1
14. COCCNC(=O)CN1CCN(C(c2ccccc2)c2ccccc2)CC1
15. COCC(C)NC(=O)CSc1ncnc2sc(-c3ccccc3)cc12 (stereo not drawn)
16. COc1cccc(NC(=O)c2cc(-c3ccncc3)nc3c(C)cc(C)cc23)c1
17. CCOc1ccc(CNc2ccc(N3CCN(Cc4ccccc4)CC3)cc2)cc1
18. CCCCCC=CCC(O)C=Cc1cccc(CC(O)CCCCO)n1 (stereo not drawn)
19. CCN(CC)CCCNC(=O)Cn1cnc2sc(C)c(S(=O)(=O)N3CCC(C)CC3)c2c1=O
20. COC(=O)CC1c2cc(C(F)(F)F)ccc2S(=O)(=O)N1C1CCCCC1 (stereo not drawn)

entry no.	11	12	13	14	15	16	17	18	19	20
Sa RN4220 lethal	5.8	x	0.0	1.7	4.1	2.9	0.0	13	0.5	5.6
Sa ugtP lethal	0	x	5	6	1	14	23	-8	2	-1
Mtb hypoxia rep	10	x	-1	6	-18	11	4	9	0	21
Mtb hypoxia rep growth	6	x	-3	0	-4	11	20	4	-4	11
BJeLR viability	-2	15	0	3	-7	3	21	x	-16	x
PrP UTR inh	-13	-31	-8	-9	-55	-19	-16	x	-12	x
Bead autofluor	3542	2546	16560*	9886	5698	3772	4078	x	4545	x

21. COCC=CC1=CC2=CC(=O)C(C)(OC(=O)c3cnc4ccccc4n3)C(=O)C2=CN1c1ccccc1 (stereo not drawn)
22. O=C(NCc1ccc2c(c1)OCO2)c1ccc2c(=O)n(C3CCCC3)c(=O)[nH]c2c1
23. Fc1cccc(/C=N/n2c(C3CCCCC3)n[nH]c2=S)c1
24. Cn1cnc([N+](=O)[O-])c1Sc1ccc(C(C)(C)C)cc1
25. COC(=O)c1cc(OC(=O)c2ccc(=O)[nH]c2)cc(C(=O)OC)c1
26. CCC12CN3CCN(CC(C3)C1=NNC(=O)c1ccc(Cl)cc1)C2
27. CC(=O)C1=C(C)N(Cc2ccccc2)C(=O)N[C@H]1c1cccs1
28. N/C(=N\OC(=O)c1ccccc1Cl)c1ccccc1
29. O=C(NN=C/C=C/c1ccccc1)c1cccc(Br)c1
30. COCCCn1c(=O)/c(=C\c2cccc(OC)c2OC)s/c1=C(/C#N)C(=O)Nc1ccc(C(=O)O)cc1

entry no.	21	22	23	24	25	26	27	28	29	30
Sa RN4220 lethal	7.5	0.5	x	7.4	3.5	7.6	x	3.6	-0.6	x
Sa ugtP lethal	4	4	x	5	4	9	x	3	-1	x
Mtb hypoxia rep	12	8	x	8	-8	-6	x	6	5	x
Mtb hypoxia rep growth	8	2	x	18	-2	1	x	2	8	x
BJeLR viability	x	-10	1	-8	-4	x	0	9	x	1
PrP UTR inh	x	2	-10	-41	-22	x	1	-113	x	-4
Bead autofluor	x	3353	3677	4282	3220	x	3914	22870*	x	4571

Retrieved one by one from the entries so far, 3 records:
24. Cn1cnc([N+](=O)[O-])c1Sc1ccc(C(C)(C)C)cc1
27. CC(=O)C1=C(C)N(Cc2ccccc2)C(=O)N[C@H]1c1cccs1
28. N/C(=N\OC(=O)c1ccccc1Cl)c1ccccc1

entry no.	24	27	28
Sa RN4220 lethal	7.4	x	3.6
Sa ugtP lethal	5	x	3
Mtb hypoxia rep	8	x	6
Mtb hypoxia rep growth	18	x	2
BJeLR viability	-8	0	9
PrP UTR inh	-41	1	-113
Bead autofluor	4282	3914	22870*

(next part)
31. O=C(C1CC(=O)N(c2ccc3c(c2)OCCO3)C1)N1CCN(Cc2ccccc2)CC1 (stereo not drawn)
32. CCN(CC)CCOC(=O)c1ccc(N/C=C(/C#N)c2nc(-c3ccc(OC)cc3)cs2)cc1
33. O=C(NC1CCOc2ccccc21)c1ccc(=O)[nH]c1 (stereo not drawn)
34. O=[N+]([O-])c1ccccc1/C=C\C=NN1CCN(c2ccccc2)CC1
35. Cc1nn(C)cc1C=NNC(=S)Nc1ccc(Cl)cc1Cl
36. COCCN1C(=O)N(C)C(c2ccccc2)C(C(C)=O)=C1C (stereo not drawn)
37. Cn1nc([N+](=O)[O-])nc1Oc1ccccc1C(=O)N1CCOCC1
38. CCOc1ccc(CCNC(=O)CCc2nnc3ccc(N4CCOCC4)nn23)cc1OCC
39. COc1ccccc1-n1c(O)c(C=NCCCn2ccnc2)c(=O)[nH]c1=O
40. Cc1ccc(S(=O)(=O)Nc2cc(C)c(O)c(S(=O)(=O)c3ccc(C)cc3)c2)cc1

entry no.	31	32	33	34	35	36	37	38	39	40
Sa RN4220 lethal	2.4	-9.2	0.5	13	-4.5	4.3	0.9	1.6	2.7	6.7
Sa ugtP lethal	4	-21	-5	-4	-6	-3	-3	-10	-4	0
Mtb hypoxia rep	1	22	13	5	8	5	1	x	11	0
Mtb hypoxia rep growth	3	8	7	7	9	2	0	x	12	2
BJeLR viability	x	12	-6	x	x	x	-8	-9	0	-4
PrP UTR inh	-10	-34	5	x	x	x	-21	4	-4	-16
Bead autofluor	7190	4799	3109	x	x	x	4274	4152	3398	8615

Compounds shown so far that have a nitro group on carbon:
24. Cn1cnc([N+](=O)[O-])c1Sc1ccc(C(C)(C)C)cc1
34. O=[N+]([O-])c1ccccc1/C=C\C=NN1CCN(c2ccccc2)CC1
37. Cn1nc([N+](=O)[O-])nc1Oc1ccccc1C(=O)N1CCOCC1

entry no.	24	34	37
Sa RN4220 lethal	7.4	13	0.9
Sa ugtP lethal	5	-4	-3
Mtb hypoxia rep	8	5	1
Mtb hypoxia rep growth	18	7	0
BJeLR viability	-8	x	-8
PrP UTR inh	-41	x	-21
Bead autofluor	4282	x	4274

Remaining list, next part:
41. O=C(CC1C(=O)NCCN1C(=O)Nc1ccc(F)cc1F)Nc1ccc(F)cc1 (stereo not drawn)
42. C=CCN(C(=O)c1csnn1)C(C(=O)NC1CCCC1)c1cccs1 (stereo not drawn)
43. Clc1ccc(N2CCN(N=Cc3cccnc3)CC2)cc1
44. COc1ccc(/C=C/C(=O)N2CCNC(=O)C2)c(OC)c1
45. COc1cccc(N2C(=O)CC(=O)NC2=O)c1
46. S=c1[nH]nc(C2CCCCC2)n1N=Cc1ccc(Br)s1
47. Cc1ccc(N=C2C(=O)Nc3c(C)cccc32)cc1
48. COc1cccc(C=Nn2c(C3CCCCC3)n[nH]c2=S)c1OC
49. O=C(CSc1ccccn1)Nc1ccc2[nH]c(=O)[nH]c2c1
50. Fc1ccc(-c2ccc(C=Nn3cnnc3)o2)cc1Cl

entry no.	41	42	43	44	45	46	47	48	49	50
Sa RN4220 lethal	-0.6	5.1	10	-3.6	2.2	6.0	0.4	3.1	-1.4	4.7
Sa ugtP lethal	-3	6	7	-6	2	-18	3	-1	-2	1
Mtb hypoxia rep	-3	7	5	0	3	8	14	-2	0	4
Mtb hypoxia rep growth	11	2	3	2	10	15	10	-1	-3	0
BJeLR viability	-8	-7	x	5	x	x	-5	x	x	x
PrP UTR inh	-22	-11	x	-32	-19	x	-30	x	-3	x
Bead autofluor	4147	3177	x	3284	23335*	x	3378	x	2877	x

51. COc1cccc(-n2c(O)c(C=NCCN3CCOCC3)c(=O)[nH]c2=O)c1
52. Cc1ccc(S(=O)(=O)NC(C)C(=O)Nc2ccc3c(c2)OCO3)cc1 (stereo not drawn)
53. COc1cc(NC(=O)C2=C(N3CCOCC3)/C(=C\c3ccc(Cl)cc3Cl)CC2)cc(OC)c1OC
54. CC(=O)NCc1cc(-c2ccc(Cl)cc2)no1
55. Cc1c(Cl)cccc1N1C(=O)CC(NNC(=O)c2cccs2)C1=O (stereo not drawn)
56. CCOC(=O)c1c(S(=O)(=O)N2CCN(c3ccc(F)cc3)CC2)c(C)n(C)c1C
57. CCCCCC(=O)Nc1cccc(S(=O)(=O)NC2=NCCCCC2)c1
58. COc1ccc2c(C)c(CCC(=O)NC3CC3)c(=O)oc2c1
59. CSc1cccc(Nc2ccc(S(=O)(=O)N3CCOCC3)cc2[N+](=O)[O-])c1
60. CCC(C)CCN1C(Nc2ccccc2)=NC[C@@H]1CC(C)C (stereo partly drawn)

entry no.	51	52	53	54	55	56	57	58	59	60
Sa RN4220 lethal	6.7	-0.8	x	0.4	-0.6	0.5	3.1	2.2	-0.3	x
Sa ugtP lethal	4	1	x	-7	6	4	13	8	-1	x
Mtb hypoxia rep	5	8	x	5	2	4	7	x	-3	x
Mtb hypoxia rep growth	5	11	x	11	4	7	-2	x	0	x
BJeLR viability	-8	-1	4	-10	7	0	x	4	x	-8
PrP UTR inh	-4	-68	-17	-6	-3	-14	-24	-19	1	-25
Bead autofluor	2854	5173	8994	3434	3069	6068	8807	5274	6327	4356

61. Cn1c2c(c(=O)n(C)c1=O)NC1(N2)C(=O)Nc2ccccc21 (stereo not drawn)
62. O=C1COc2ccc(S(=O)(=O)NCCc3ccc(Cl)cc3)cc2N1
63. O=c1[nH]cc(COCC(F)CCl)c(=O)[nH]1 (stereo not drawn)
64. CCC(=O)Nc1c(-c2ccc(C)cc2)c(=O)c2ccccc2n1C
65. COc1ccc(N2CCN(C(=O)CCN3C(=O)C4C5C=CC(C5)C4C3=O)CC2)cc1 (stereo not drawn)
66. CCCOP(=O)(OCCC)C(NC(=O)C(C)(C)C)c1ccccc1 (stereo not drawn)
67. COc1ccc(C)cc1-n1nnnc1SCC(=O)NC(=O)NCc1ccco1
68. CCCCN(C(=O)c1ccc(COc2ccccc2)o1)c1c(N)n(CC(C)C)c(=O)[nH]c1=O
69. Cc1ccc(C(=O)NN=Cc2cn(Cc3ccccc3)c3ccccc23)cn1
70. COc1ccc(OCCNC(=O)C(c2ccccc2)c2ccccc2)cc1

entry no.	61	62	63	64	65	66	67	68	69	70
Sa RN4220 lethal	2.5	2.1	-1.1	-0.3	4.5	2.2	4.7	5.1	2.8	-1.8
Sa ugtP lethal	2	-2	-2	4	4	3	6	5	-10	20
Mtb hypoxia rep	17	-19	14	8	14	1	-3	5	3	5
Mtb hypoxia rep growth	9	8	12	2	0	12	7	7	-1	6
BJeLR viability	0	1	-10	0	2	3	14	x	x	10
PrP UTR inh	-48	4	-35	-14	-14	-5	-3	-3	x	-16
Bead autofluor	4209	3515	3959	3936	2450	1988	9595	u	x	2573

Screens: PubChem, several laboratories
